# Bioassay records: PubChem, several laboratories
# Arbovirus inh: arbovirus infection inhibition; arbovirus infection cell-based antiviral screen; AID 1251; 200,000 compounds, 0.37% hits; inhibition, % at 10 µM;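 active = inhibition from about 30%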;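 note: bluetongue infection of BSR cells; cell survival read as ATP light after 72 h; 0% = infected wells without compound and 100% = uninfected wells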
# YopH inh: YopH (Yersinia) phosphatase inhibition | fluorescence Ex485/Em525 | inhibition, %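 (about 10 µM by stock and volumes)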 | 140,000 compounds, 0.16% hits | AID 898;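 active = inhibition of 50% or more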;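 note: controls were vehicle for no effect and minimum signal wells for full effect; inactives centre near -20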
# RecA splice inh: blocks M. tuberculosis RecA intein splicing; cell-free RecA intein splicing, fluorescence; inhibition, %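 (about 9 µM by stock and volumes)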; 290,000 compounds, 0.75% hits; AID 2221; in the data active = inhibition above about 30%; inconclusive = no clear call, values can overlap the other calls;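 note: 0% = vehicle wells and 100% = reference inhibitor control wells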
# Target sequence (P9WHJ3 whole entry, looked up, canonical isoform): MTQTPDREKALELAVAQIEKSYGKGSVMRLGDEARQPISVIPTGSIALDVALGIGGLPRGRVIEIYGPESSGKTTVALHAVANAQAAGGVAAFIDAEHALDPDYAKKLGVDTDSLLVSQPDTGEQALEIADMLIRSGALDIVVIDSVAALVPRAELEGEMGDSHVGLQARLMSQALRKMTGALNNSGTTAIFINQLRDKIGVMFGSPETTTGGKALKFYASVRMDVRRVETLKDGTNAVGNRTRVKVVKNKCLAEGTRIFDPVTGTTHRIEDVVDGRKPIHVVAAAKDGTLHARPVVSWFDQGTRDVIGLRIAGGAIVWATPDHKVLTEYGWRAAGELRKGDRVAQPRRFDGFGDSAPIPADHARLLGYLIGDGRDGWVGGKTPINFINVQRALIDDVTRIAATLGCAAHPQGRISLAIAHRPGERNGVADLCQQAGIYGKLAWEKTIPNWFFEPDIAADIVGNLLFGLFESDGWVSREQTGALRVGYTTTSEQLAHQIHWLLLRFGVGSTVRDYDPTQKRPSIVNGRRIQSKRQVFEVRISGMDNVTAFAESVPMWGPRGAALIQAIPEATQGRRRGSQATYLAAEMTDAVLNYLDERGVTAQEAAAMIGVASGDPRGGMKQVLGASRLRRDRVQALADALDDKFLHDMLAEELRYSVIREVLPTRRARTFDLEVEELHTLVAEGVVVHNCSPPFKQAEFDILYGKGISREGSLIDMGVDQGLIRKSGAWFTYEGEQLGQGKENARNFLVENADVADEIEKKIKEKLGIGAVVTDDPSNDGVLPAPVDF
# Mtb bLac sens: beta-lactam sensitization of Mtb H37Rv. 330,000 compounds, 0.27% hits. M. tuberculosis H37Rv growth with meropenem, percent inhibition; hits of this screen are not shown here. inhibition, % at 25 µM;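 active = about 74% or more and at least 40 points above the plate without the antibiotic, then above 30% in a dose series; inconclusive = first-round hits that could not be retested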;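 note: growth measured after seven days incubation then overnight dye step; 0% = bacteria only wells and 100% = bacteria with antibiotic; twin plates without the antibiotic show which effects depend on it; some results filed as inactive read as strong as hits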
# Mtb growth: M. tuberculosis H37Rv growth inhibitors, H37Rv strain (AID 1626). M. tuberculosis H37Rv growth inhibition; higher % means a stronger effect. inhibition, % at 10 µM, or IC50 in µM where a hit was titrated. 220,000 compounds, 0.95% hits;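 active = confirmed in a dose series; inconclusive = inhibition above 80% but not taken into the dose series; inactive = below 80% or under 30% at every dose of the series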;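 note: bacteria incubated seven days before Alamar blue readout; 0% = bacteria only wells and 100% = bacteria with antibiotic wells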
# Arbovirus inh repeat: further read-out of Arbovirus inh, marked with its call; inhibition, %; measured here: 10K subset replicate screen; many hits read low in the repeat;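 first of two repeat runs on a subset; 0% = infected and 100% = uninfected wells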
# Numbers without * were called inactive; ? = inconclusive; / = no result given. A portion of the library; rates above refer to the full screens.
SMILES,Arbovirus inh,YopH inh,RecA splice inh,Mtb bLac sens,Mtb growth,others
CCN(CC)C(=O)c1ccc(Nc2nnc(C)c3ccccc23)cc1,-7.4,-22.5,3.1,-2.3,-6.6%,
CC(=O)NC1C(OCCOc2ccc(Cl)cc2C)OC(CO)C(O)C1O (stereo not given),/,/,1.1,4.9,/,
C=CC(=O)N1C/C=C\C(c2ccc(OC)cc2)N(Cc2ccc(F)cc2)C(=O)C1 (stereo not given),/,/,2.3,/,16.4%,
COc1cc(C(=O)Nc2c(C(=O)O)[nH]c3ccc(Br)cc23)cc(OC)c1OC,/,/,3.4,?,/,
Cn1ccnc1SCC(=O)Nc1ccc2ccccc2c1,5.9,-10.3,6.4,-9.1,11.1%,Arbovirus inh repeat=2.2
O=C(CN1CCSCC1)N/N=C/c1cccc(Cl)c1,-1.5,/,-0.3,0.5,-0.2%,
Cc1cc(OCCCn2ccnc2)cc(C)c1Cl,-8.6,-21.2,3.4,96.2,16.8%,
COc1ccc(NC(=O)Nc2ccc(CC(=O)O)cc2)cc1,-5.0,/,0.6,4.0,7.3%,
Cc1cc(C)n2nc(C(=O)N/N=C/c3ccc(O)cc3)nc2n1,10.5,/,-0.1,-4.0,-0.4%,
CC1=C(C(N)=O)C(c2cccnc2)n2nc(SCc3ccccc3Cl)nc2N1 (stereo not given),4.0,-28.6,0.8,-3.2,-4.6%,
COc1ccccc1N(C(=O)CNS(=O)(=O)c1ccccc1)C(C(=O)NCc1ccco1)C(C)C (stereo not given),-2.3,-32.0,-1.6,/,5.9%,
COc1ccc(CNC(=O)CN(C(=O)CCC(=O)Nc2nccs2)c2cccc(C)c2)cc1,/,/,0.7,-2.5,/,
O=C(CCCCCN1C(=O)CCC1=O)Nc1ccc(Cl)c(C(F)(F)F)c1,-5.5,-11.0,0.2,-6.7,-5.4%,
COC(=O)c1ccc2nc(-c3cccc(N)c3)cn2c1,1.1,/,2.9,-3.8,0.9%,
O=C(O)COCC(=O)N1CCCN(c2nccc(C(F)(F)F)n2)CC1,/,/,-0.4,7.0,/,
COc1cccc(C(=O)Nc2c(F)cccc2F)c1,-0.8,/,3.1,0.8,-8.1%,
Cc1onc(-c2ccccc2)c1C(=O)OCCOc1cccc(Cl)c1,/,/,9.9,37.6,/,
COC(=O)c1c(NC(C)=O)sc2c1CCCCC2,-11.5,-32.8,2.5,-5.1,-1.1%,
Clc1ccc(-c2ccc(/C=N/Nc3nncc(-c4ccccc4)n3)o2)cc1,5.0,-6.4,0.9,99.0,2.8%,
COc1ccc(C(O)P(=O)(OC(C)C)OC(C)C)c(OC)c1 (stereo not given),/,/,-3.7,-6.8,-6.4%,
COc1ccc(CCN2C(=O)CC(N3CCOCC3)C2=O)cc1 (stereo not given),-2.0,-8.4,/,6.8,-3.4%,
Cc1nnc(SCC(=O)Nc2cc(C(N)=O)cc(C(N)=O)c2)n1-c1ccccc1,/,/,-0.3,-6.8,/,
Cc1nn(C)c(C)c1NC(=O)CN1CCC(O)(c2ccc3c(c2)OCO3)CC1,7.8,-31.3,0.8,0.6,-2.3%,
O=C(NCCCn1ccnc1)Nc1ccc(Cl)cc1,7.1,4.3,-1.2,?,-7.7%,
CCOC(=O)N1CCN(C(=O)CN(c2cccc(C(F)(F)F)c2)S(C)(=O)=O)CC1,1.4,-47.8,4.4,1.4,-9.6%,Arbovirus inh repeat=5.1
O=C(O)c1ccccc1OC(=O)C12CC3CC(CC(C3)C1)C2,12.5,/,-0.4,8.2,-5.4%,
COCC(=O)NNS(=O)(=O)c1ccccc1[N+](=O)[O-],0.9,-3.7,1.1,-2.8,-0.9%,
CCOC(=O)c1c(C)n(-c2ccc(C)cc2)c2ccc(OCC(O)CNCC3CCCO3)cc12 (stereo not given),-35.1,/,8.6,99.6,0.6%,
CC(NC(=O)c1ccccc1C(=O)O)c1ccc(-n2ccnc2)cc1 (stereo not given),/,/,-1.5,1.4,/,
CCOC(=O)CSC1=NN2CCS(=O)(=O)N=C2S1,-0.7,/,-0.5,2.5,4.5%,
COc1ccc(C(=O)c2ccc(CC(=O)O)s2)cc1,6.9,/,0.1,-3.2,4.6%,
COC(=O)CN(C)C(=O)c1cccc(OC2CCN(S(=O)(=O)N(C)C)CC2)c1,/,/,-2.5,7.9,/,
CCOc1cccc(NC(=O)/C(C#N)=C/c2cccnc2)c1,/,/,-0.1,-2.4,-5.2%,
O=C(Cc1cccc2ccccc12)N/N=C/c1ccc(Sc2nc3ccccc3s2)o1,-5.8,-18.9,3.5,9.9,1.0%,
COc1cc(C#N)c(NC(=S)N2CCOCC2)cc1OC,1.9,/,1.2,-14.6,4.2%,
Cc1cc(CNC(=S)Nc2ccc(Br)cc2Cl)nn1C,4.4,/,1.5,-2.1,9.6%,
COCCN1C(=O)C(CC(=O)Nc2ccc(C(C)=O)cc2)SC1=Nc1ccccc1 (stereo not given),-2.8,-24.7,/,-5.3,2.1%,
CC(C(=O)O)N1c2cccc3cccc(c23)S1(=O)=O (stereo not given),/,/,-3.6,10.2,/,
COc1ccc(/C=N/NC(=O)c2sc3nc(C)cc(C)c3c2N)cc1,/,/,-2.7,-10.5,3.5%,
COCCCNC(=O)c1ccccc1-c1cc(C)no1,/,/,-4.6,0.1,/,

# Overlap with the part before: two entries, followed by the next part.
SMILES,Arbovirus inh,YopH inh,RecA splice inh,Mtb bLac sens,Mtb growth,others
COc1ccc(/C=N/NC(=O)c2sc3nc(C)cc(C)c3c2N)cc1,/,/,-2.7,-10.5,3.5%,
COCCCNC(=O)c1ccccc1-c1cc(C)no1,/,/,-4.6,0.1,/,
OC(CNC1CCCC1)COc1ccc(Cl)cc1 (stereo not given),/,/,1.3,-13.4,/,
Cc1cc(C)n(-c2nc3c(c(=O)[nH]c(=O)n3C)n2Cc2cccc(Br)c2)n1,0.4,-30.1,1.0,-3.5,-5.2%,
O=C(NCCOc1ccccc1F)C1CCC(=O)N(CCc2cccc(F)c2)C1 (stereo not given),/,/,-0.5,-6.3,/,
CCOc1ccccc1NC(=O)CCc1nnc2ccc(NCc3ccco3)nn12,/,/,1.7,2.5,/,
COc1cccc(C(=O)Nc2ncc3c(n2)CC(c2ccc(OC)cc2OC)CC3=O)c1 (stereo not given),-15.7,-32.4,1.7,21.7,3.1%,
CCSc1ccccc1C(=O)Nc1ccc2c(c1)OCO2,-6.2,/,5.6,3.6,1.7%,
CCOC(=O)c1cnc2ccccc2c1Nc1cc(C(=O)O)ccc1C,17.7,/,/,5.4,5.0%,
CCC(=O)c1cc(-c2nc3ccccc3n2C)n(C)c1,-0.9,13.5,/,-10.2,-2.6%,
COc1cccc(NC(=O)CN(C)S(=O)(=O)c2ccc3c(c2)CCC(=O)N3)c1,/,/,0.4,-1.1,/,
Cc1ccccc1Nc1ncnc2c1cnn2-c1ccccc1,-12.2,-16.2,1.0,-0.6,11.4%,Arbovirus inh repeat=-4.6
COc1ccc2c(c1)C1CC(C)(NC(=O)C1S(=O)(=O)c1ccc(F)cc1)O2 (stereo not given),7.0,-19.1,-0.5,3.4,1.9%,
Cc1cc(=O)oc2cc(OCC(=O)Nc3nnc(C4CC4)s3)ccc12,/,/,-1.2,-12.2,-18.0%,
Cc1c(Nc2nc3ccccc3n3cnnc23)cccc1[N+](=O)[O-],/,/,1.5,4.8,/,
Cc1cccnc1NC(=O)CCNS(=O)(=O)c1ccc2c(c1)c(=O)n(C)c(=O)n2C,2.4,/,0.3,2.0,-10.1%,
CCCCn1c(N)c(N(CCOC)C(=O)CSCc2c(C)noc2C)c(=O)[nH]c1=O,/,/,-1.0,8.2,/,
CC(NC(=O)Nc1ccccc1)C(c1cccs1)N1CCN(c2ccccc2)CC1 (stereo not given),1.3,/,/,4.6,6.8%,
CSCCC(NC(=O)/C(=C/c1ccc(F)cc1)NC(C)=O)C(=O)O (stereo not given),-1.6,/,-3.5,2.4,-1.4%,
Cc1ccccc1C(=O)NC1CCCCCCC1,/,/,0.6,4.2,/,
Cc1cccc(OCC(O)CN2CCN(CCN3C(=O)c4cccc5cccc(c45)C3=O)CC2)c1C (stereo not given),-19.0,/,-1.2,99.5,?,
NNC(=O)c1cc(C23CC4CC(CC(C4)C2)C3)nc2ccccc12,/,/,0.7,-1.3,/,
CO/N=C/NC(=O)c1c(OC)ccnc1Oc1cccc(C(F)(F)F)c1,1.4,-42.9,0.3,7.2,-8.5%,
CC(C)NC(=O)c1cc2nc(-c3ccco3)cc(C(F)(F)F)n2n1,-1.5,-0.1,-35.7,-0.7,-2.1%,
Cc1c(-c2ccccc2)c(P(=O)(N2CCOCC2)N2CCOCC2)c2ccccn12,7.7,-49.2,-2.1,-3.7,-6.5%,
CN(C)c1cc2c(cc1NS(=O)(=O)c1ccccc1)n(C)c(=O)n2C,/,/,-5.1,5.7,/,
COc1ccc(CCNc2nc(C)nc3c2nnn3Cc2ccccc2)cc1OC,/,/,1.4,2.2,/,
O=C(O)CC(NC(=O)C1CCCCC1)c1cc([N+](=O)[O-])ccc1Cl (stereo not given),7.5,/,-3.2,-2.4,-1.4%,
COc1ccc(O[C@H]2C=C[C@@H](c3ccccc3)O[C@@H]2COC(=O)CCC(C)=NO[C@@H]2O[C@H](COC(C)=O)[C@@H](OC(C)=O)[C@H](OC(C)=O)[C@H]2OC(C)=O)cc1,6.5,-27.2,/,/,8.2%,
CCS(=O)(=O)c1ccc(O)c(NC(=O)NC2CCCCC2)c1,/,/,1.4,3.6,-6.0%,
COc1ccc(/C=N/NC(=O)CC2N=C(Cc3ccccc3)NNC2=O)cc1OC (stereo not given),-7.7,-10.6,-1.7,-5.4,-1.2%,
CC(=O)Cn1ncc(N2CCOCC2)c(Br)c1=O,3.9,/,0.8,-2.6,4.8%,
Cc1ccc(-n2c(Cc3cccn3C)nnc2SCC(=O)N2CCN(c3ccccc3)CC2)cc1,0.1,-23.0,0.3,10.8,-3.7%,
Cc1nn(C)cc1C1Nc2ccccc2C(=O)N1O (stereo not given),-3.7,-12.6,-2.4,6.2,-4.6%,
c1ccc(-n2ncc(-c3nn[nH]n3)n2)cc1,1.2,-9.3,-0.4,-0.1,-3.4%,
COc1cccc(NC(=O)CSc2nnc(NC(=O)C3CC3)s2)c1,/,/,0.1,-2.5,/,
Cc1ccc(NC(=O)CCCNC(=O)c2ccc(Cl)cc2)nc1,/,/,-0.1,-8.3,/,
O=C(CSC1=NCCS1)Nc1ccc2ccccc2c1,-1.6,/,26.9,89.2,>100µM*,

# Gathered by group, those above with a Cl atom (12)
SMILES,Arbovirus inh,YopH inh,RecA splice inh,Mtb bLac sens,Mtb growth,others
CC(=O)NC1C(OCCOc2ccc(Cl)cc2C)OC(CO)C(O)C1O (stereo not given),/,/,1.1,4.9,/,
O=C(CN1CCSCC1)N/N=C/c1cccc(Cl)c1,-1.5,/,-0.3,0.5,-0.2%,
Cc1cc(OCCCn2ccnc2)cc(C)c1Cl,-8.6,-21.2,3.4,96.2,16.8%,
CC1=C(C(N)=O)C(c2cccnc2)n2nc(SCc3ccccc3Cl)nc2N1 (stereo not given),4.0,-28.6,0.8,-3.2,-4.6%,
O=C(CCCCCN1C(=O)CCC1=O)Nc1ccc(Cl)c(C(F)(F)F)c1,-5.5,-11.0,0.2,-6.7,-5.4%,
Cc1onc(-c2ccccc2)c1C(=O)OCCOc1cccc(Cl)c1,/,/,9.9,37.6,/,
Clc1ccc(-c2ccc(/C=N/Nc3nncc(-c4ccccc4)n3)o2)cc1,5.0,-6.4,0.9,99.0,2.8%,
O=C(NCCCn1ccnc1)Nc1ccc(Cl)cc1,7.1,4.3,-1.2,?,-7.7%,
Cc1cc(CNC(=S)Nc2ccc(Br)cc2Cl)nn1C,4.4,/,1.5,-2.1,9.6%,
OC(CNC1CCCC1)COc1ccc(Cl)cc1 (stereo not given),/,/,1.3,-13.4,/,
O=C(O)CC(NC(=O)C1CCCCC1)c1cc([N+](=O)[O-])ccc1Cl (stereo not given),7.5,/,-3.2,-2.4,-1.4%,
Cc1ccc(NC(=O)CCCNC(=O)c2ccc(Cl)cc2)nc1,/,/,-0.1,-8.3,/,
